# Compound activity: PubChem, Southern Research Institute
# Mtb H37Rv = Confirmatory growth inhibition assay against Mycobacterium tuberculosis H37Rv, potency (AID 1949) | actives 1.6% (n = 100,000) | most inactive calls were filed without a number and no value below 0 was filed | inhibition, % at 10 µg/mL; hits with a dose series show IC50 in µg/mL;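 active means confirmed in a dose series; inconclusive means about 50% or more but not retested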;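 further: bacteria grown 7 days with compound before Alamar blue readout; 0% = untreated bacteria and 100% = reference antibiotic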
# The depositor's hits bear a star; i = inactive; u = inconclusive.
Structure	Mtb H37Rv
COc1ccc(-c2csc(NC(=S)NC(=O)c3ccc(C(C)(C)C)cc3)n2)cc1	12%
CC1CCCC(C)N1C(=O)CSc1nc(N)c(-c2ccccc2)c(=O)[nH]1 (stereo not drawn)	i
O=C(Nc1ccc2oc(-c3ccccc3F)nc2c1)c1ccc2c(c1)OCO2	i
Cn1c(=O)c2c(nc(CN3CCN(c4ccccc4)CC3)n2CCCc2ccccc2)n(C)c1=O	i
O=C(Cc1ccc(Cl)cc1)Nc1cccc(C(=O)c2ccccc2)c1	u
CCOC(=O)C1(C(=O)OCC)CCC1	i
Fc1ccc(NC(=S)N2CCN(c3ccccn3)CC2)cc1Cl	i
CCOc1ccc(C(=O)Nc2nc(-c3ccc(Cl)cc3)cs2)cc1Br	i
COc1cc(NC(=O)CCSc2ccccc2)c(OC)cc1Cl	1%
O=C(NNC(=O)C(F)(F)F)c1sc2ccccc2c1Cl	i
COC(=O)c1noc(-c2ccc(F)cc2)n1	i
CCOC(=O)c1cnc2ncnn2c1N	i
CCOc1ccccc1NC(=O)C1CC(=O)N(c2ccc(C)cc2)C1 (stereo not drawn)	i
CCCOc1ccc(CCC(=O)O)cc1	1%
COC(=O)Nc1ccc(S(=O)(=O)N2CCCC(C(=O)N3CCCC(C(F)(F)F)C3)C2)cc1 (stereo not drawn)	i
Cc1c(NC(=O)NC2CCCC2)n(C)c(=O)n1-c1ccccc1	i
O=C(CC1c2ccccc2Oc2ccccc21)Nc1ccccn1	i
Cc1cc(C)c(OCCOc2cccc3cccnc23)c(Br)c1	14%
Cc1cc(C)c(S(=O)(=O)Nc2c(C)cccc2C)cc1N(C)S(=O)(=O)c1ccccc1	i
CC(=O)N1CCN(c2ccc(NCc3ccc(OCc4cccs4)cc3)cc2)CC1	0%
CCOc1ccc(N2C(=O)CC(N3CCN(c4ccccc4O)CC3)C2=O)cc1 (stereo not drawn)	i
O=c1[nH]c(/C=C/c2ccc(-c3ccc(F)cc3)o2)c([N+](=O)[O-])c(=O)[nH]1	i
O=C(Cn1c(-c2cscn2)nc2ccccc21)Nc1ccccc1F	0%
CC(C)c1ccccc1NC(=O)COc1ccc(Br)cc1	10%
NC(=O)Cc1nc(-c2ccc(Br)cc2)cs1	5%
COc1ccc(C(=O)Nc2ccc(C(=O)NCC(C)C)cc2)cc1	i
COc1ccc(NC(=O)c2cccc(C#CC3(O)CCCCC3)c2)cc1	i
CC(=O)N1c2ccccc2NC2=C(C(=O)CCC2)C1c1ccccc1 (stereo not drawn)	i
Cc1ccnc(NC(=S)Nc2ccc(F)c(Cl)c2)c1	10%
CCCc1sc(NC(=O)c2cccnc2)nc1-c1ccc(F)cc1	i

# Part of the list above, reformatted.
> COc1ccc(C(=O)Nc2ccc(C(=O)NCC(C)C)cc2)cc1
  Mtb H37Rv: i
> COc1ccc(NC(=O)c2cccc(C#CC3(O)CCCCC3)c2)cc1
  Mtb H37Rv: i
> CC(=O)N1c2ccccc2NC2=C(C(=O)CCC2)C1c1ccccc1 (stereo not drawn)
  Mtb H37Rv: i
> Cc1ccnc(NC(=S)Nc2ccc(F)c(Cl)c2)c1
  Mtb H37Rv: 10%

# Already shown: 4 of the compounds above.
Structure	Mtb H37Rv
COc1ccc(-c2csc(NC(=S)NC(=O)c3ccc(C(C)(C)C)cc3)n2)cc1	12%
CC1CCCC(C)N1C(=O)CSc1nc(N)c(-c2ccccc2)c(=O)[nH]1 (stereo not drawn)	i
O=C(Nc1ccc2oc(-c3ccccc3F)nc2c1)c1ccc2c(c1)OCO2	i
Cn1c(=O)c2c(nc(CN3CCN(c4ccccc4)CC3)n2CCCc2ccccc2)n(C)c1=O	i

# Later entries.
Structure	Mtb H37Rv
C=CCn1c(COc2ccc(C)cc2OCC)nnc1SCC(=O)Nc1cc(C(F)(F)F)ccc1Cl	1%
COc1ccc(C2CC(=O)C=C(NCc3ccccc3)C2)cc1 (stereo not drawn)	i
Cc1ccc(-c2nnc3s/c(=C\c4cccs4)c(=O)n23)cc1	i
Cc1ccc(SC(C)C(=O)Nc2ccc(F)cc2F)cc1 (stereo not drawn)	i
Cc1cc(Cl)ccc1OCC(=O)Nc1ccc(S(=O)(=O)N(C)C)cc1	i
Cc1ccccc1NC(=O)CSc1nnc(C)c2ccccc12	i
CCOc1ccc(S(=O)(=O)N2CCN(c3ccccc3F)CC2)cc1	1%
CC1=C(C(=O)NCc2ccccc2)C(c2cccs2)NC(=S)N1 (stereo not drawn)	i
Cc1ccc(S(=O)(=O)NC2(C(F)(F)F)C(=O)Nc3c2c(=O)n(C)c(=O)n3C)cc1 (stereo not drawn)	i
COc1ccc(CC(=O)Nc2nnc(C(C)C)s2)cc1	i
O=C(NCC1CCCO1)c1cnn2cc(Br)cnc12 (stereo not drawn)	i
CCCCOc1ccccc1Cn1c(=O)oc2ccc(C)cc21	4%
Cc1ccc(N2CCN(C(=O)c3cccc(Br)c3)CC2)c(C)c1	7%
O=C(Cn1cnc2ccccc2c1=O)N1CCN(C(c2ccccc2)c2ccccc2)CC1	i
CS(=O)(=O)N(CC(=O)N1CCCCCC1)c1cc(Cl)ccc1Cl	i
C=CCc1cc(OC)ccc1OCCOCCNCCO	i
CS(=O)(=O)N1CCCC(C(=O)NC2CC2)C1 (stereo not drawn)	i
Cc1ccc(-c2cc(C(F)(F)F)n3nc(C(=O)NN4CCOCC4)cc3n2)cc1C	i
O=C(O)c1ccc(NC(=S)NC(=O)c2cccc(I)c2)cc1	i
COc1cc(Cl)c(C)cc1NC(=O)c1cccs1	i
CCc1ccc(OCCCC(=O)Nc2ccccc2F)cc1	i
COc1ccc(Cl)cc1C(=O)NC(=S)Nc1cc2nn(-c3ccc(C)cc3)nc2cc1C	i
CCOC(=O)c1ccc(NC(=S)Nc2cc(Cl)c(Cl)cc2Cl)cc1	2.7µg/mL*
CS(=O)(=O)N(CC(=O)NCc1ccco1)c1ccc(I)cc1	i
COc1ccc(C(=O)Cc2cc(OC)c(OC)cc2Br)c(OC)c1	i
Cc1ccc(NC(C)c2cc(Cl)ccc2O)cc1 (stereo not drawn)	i
O=C(CSCc1ccc([N+](=O)[O-])cc1)Nc1ccc(F)c(Cl)c1	i
Cc1cccc(OC(=O)c2nc(S(C)(=O)=O)ncc2Cl)c1C	4%
COc1ccc(OCC(=O)OC2CCN(C)CC2)cc1	i
O=C(O)CSc1nc2c(c(C(F)(F)F)n1)CCc1ccccc1-2	i
Cc1ccc(C(C)NC(=O)c2ccco2)cc1C (stereo not drawn)	i
Cc1ccnc(NC(=O)C2C3C=CC(C3)C2C(=O)O)c1 (stereo not drawn)	i
CCOc1ccc(OCC(=O)Nc2c(C)cc(C)cc2Cl)cc1	49%
CCN(CC)C(=O)COc1cc2oc(=O)c(Cc3ccccc3)c(C)c2cc1Cl	i
CCn1c(CSCc2ccc(Cl)c(Cl)c2)n[nH]c1=S	37%
CC(C)C(NC(=O)CCN1C(=O)c2ccccc2C1=O)c1ccccc1 (stereo not drawn)	i
NC1=NC(=Nc2ccc(I)cc2)c2ccccc21	i
O=[N+]([O-])c1cccc(-c2noc(-c3cccc4ccccc34)n2)c1	i
Nc1nnc(SCC(=O)Nc2ccccc2C(F)(F)F)s1	i
O=C(O)C(Cc1ccccc1)Nc1ncnc2sc3c(c12)CCC3 (stereo not drawn)	i
O=C(COc1ccc2c3c(c(=O)oc2c1)CCC3)c1ccc(-c2ccccc2)cc1	2%
O=C(Cc1ccc(F)cc1)N(Cc1ccccc1)c1ccccn1	4%
CCSc1nnc(NC(=O)c2cc(C)oc2C)s1	i
C=CCc1cc(Cl)ccc1OCCCCN(CC)CC	i
O=C(Oc1ccc(Br)cc1Cl)c1cccc([N+](=O)[O-])c1	9%
CCn1c(Cc2ccc(OC)cc2)nnc1SCC(=O)Nc1nc(-c2ccccc2)c(C)s1	1%
COc1ccc(CN2CCN(C3CCCC3)CC2)c(OC)c1	4%
Cc1c(C(=O)NCc2cccs2)oc2ccccc12	i
S=C(Nc1ccc(Cl)cn1)Nc1cccc(Cl)c1Cl	0%
CCOC(=O)N1CCN(C(=O)CCN2C(=O)c3cccc4cccc(c34)C2=O)CC1	i
COc1ccc(CCC(=O)Nc2ccc(Cl)c(Cl)c2)cc1	35%
CCc1cccc(CC)c1NC(=O)CSc1nnc(N)s1	i
COc1ccc(N(C(C)C(=O)Nc2ccc(C(F)(F)F)cc2)S(C)(=O)=O)cc1 (stereo not drawn)	i
O=C(NS(=O)(=O)c1ccc(Cl)cc1)c1cccc2ccccc12	i
O=C(CCCN1C(=O)c2cccc3cccc(c23)C1=O)NC1CCCCC1	i
COc1ccc(C(=O)O)cc1NC(=S)NC(=O)c1cc(Br)ccc1OC	i
COc1cccc(NC(=O)CSc2nnc(CNC(=O)c3cccc([N+](=O)[O-])c3)n2C)c1	i
CC(NC(=O)c1ccc(N(Cc2ccccc2Cl)S(C)(=O)=O)cc1)c1ccccc1 (stereo not drawn)	i
CC(C)OC(=O)CCc1nc2ccccc2[nH]c1=O	i
COc1ccc(-c2c(=O)n(OCc3ccccc3Cl)c3ccccc3[n+]2[O-])cc1OC	i

# Later entries:
compound	Mtb H37Rv
CC(C)(C)Cc1nnc(NC(=O)CN2C(=O)c3ccccc3C2=O)s1	1%
COc1cc(/C=C2\N=C(c3ccc(F)cc3)OC2=O)ccc1OC(=O)c1ccccc1Cl	4%
CCCNS(=O)(=O)c1ccc(OCC(=O)Nc2cccc(OC)c2)cc1	i
COc1ccc(Cl)cc1S(=O)(=O)N1CCCCC1	i
CCc1cccc(CC)c1NC(=O)COc1ccc(S(=O)(=O)NCc2ccccc2)cc1Cl	i
COc1ccccc1C(=O)Nc1ccccc1C(=O)N1CCCC1	0%
COC(=O)c1c(NC(=O)CN(c2cc(C)ccc2C)S(C)(=O)=O)sc2c1CCCC2	4%
N#Cc1c(NC(=O)c2ccc3c4c(cccc24)CC3)sc2c1CCCC2	i
Cc1ccccc1NC(=O)NNc1ccc(F)cc1	i
Cc1c(Cl)cccc1-c1ccc(C=O)o1	1%
C=CCOc1ccc(Cl)cc1CNCCCN1CCOCC1	i
COc1cc(S(=O)(=O)NCc2ccccn2)c(OC)cc1Cl	i
CCc1c(C)sc(NC(=S)N2CCN(C(=O)c3ccco3)CC2)c1C(=O)OC	i
COc1ccc(-n2nc3ccc(NC(=O)c4ncn[nH]4)cc3n2)cc1Cl	i
COc1cc(NC(=O)c2ccccc2-c2ccccc2)cc(OC)c1OC	i
COC(=O)CC(NC(=O)c1ccc(Br)cc1)C(=O)OC (stereo not drawn)	i
Cc1cccc(NC(=O)c2cc(-c3cccs3)nc3ccccc23)n1	1.8µg/mL*
S=C(NCCN1CCOCC1)Nc1ccccc1Cc1ccccc1	i
CC(C)(C)C(=O)NNC(=O)CCCOc1ccc(Cl)cc1Cl	i
CS(=O)(=O)N(CC(=O)NC1CCCCC1)c1ccc(Cl)c(C(F)(F)F)c1	1%
CC(C)OC(=O)c1ccc(Cn2cnc3sc(-c4ccccc4)cc3c2=O)cc1	i
CCC(=O)N1N=C(c2c(-c3ccccc3)c3cc(Cl)ccc3[nH]c2=O)CC1c1ccco1 (stereo not drawn)	6%
COc1cc(NS(=O)(=O)c2ccc3c(c2)Cc2ccccc2-3)cc(OC)c1OC	i
O=C(NC(=S)Nc1ccc(F)c(Cl)c1)c1ccccc1F	i

# 2 entries from above in a different format:
mol: CC(C)OC(=O)c1ccc(Cn2cnc3sc(-c4ccccc4)cc3c2=O)cc1
- Mtb H37Rv: i

mol: CCC(=O)N1N=C(c2c(-c3ccccc3)c3cc(Cl)ccc3[nH]c2=O)CC1c1ccco1 (stereo not drawn)
- Mtb H37Rv: 6%

# Following part
compound	Mtb H37Rv
O=C(Oc1ccc2c(c1)CCCC2)c1ccc(Cl)cc1	26%
N#CC1=C(N=Cc2ccc(Br)cc2)c2ccccc2CC12CCCCC2	i
O=C(O)CC(NCc1ccccc1)C(=O)Nc1ccccc1Br (stereo not drawn)	i
O=C(NC(=S)Nc1cccc(NC(=O)c2cccc(Cl)c2)c1)c1ccc2ccccc2c1	i
CCCOC(=O)C(CC(C)C)N1C(=O)C2C3c4ccccc4C(c4ccccc43)C2C1=O (stereo not drawn)	i
O=C(c1ccc(F)cc1)N1CCN(c2ccc([N+](=O)[O-])c(Sc3ccccn3)c2)CC1	i
CC1CCN(c2nc3c(c(=O)n(C)c(=O)n3C)n2Cc2cccc(Br)c2)CC1	4%
Nc1cc(=O)[nH]c2nnc(SCc3ccc(Cl)cc3Cl)n12	i
Cc1cccc(N2C(=O)C(CC(=O)Nc3ccccc3)N(C(C)C)C2=O)c1 (stereo not drawn)	i
Cc1nnc(C)c2c(C)n(Cc3ccc4c(c3)OCO4)c(C)c12	1%
O=C(NCc1ccco1)c1ccccc1NC(=O)C1CC(=O)N(c2ccc(Cl)cc2)C1 (stereo not drawn)	i
N#Cc1ccc(CSc2nnc(-c3cnccn3)n2-c2ccccc2)cc1	i
CC(C)(C)c1ccc(C(=O)Nc2ccc(O)cc2C(=O)O)cc1	i
COc1ccc(S(=O)(=O)N(C)CC(=O)Nc2ccc(F)cc2F)cc1OC	i
O=C(O)c1ccc(CS(=O)(=O)c2ccc(Br)cc2)cc1	i
Cc1ccc(OCC(=O)Oc2ccccc2[N+](=O)[O-])c(Br)c1	i
NC(=O)c1ccccc1NC(=O)CCC1CCCCC1	1%
O=C(NNC(=S)Nc1ccc2c(c1)OCO2)C(Sc1ccccc1)c1ccccc1 (stereo not drawn)	i
OCCNCCCCCOc1ccccc1Cl	i
C=C(C)c1cccc(C(C)(C)NC(=O)N2CCN(c3ncccn3)CC2)c1	i
COC(=O)c1ccc(C2C(C(=O)OCc3ccccc3)=C(C)N=C3SCCC(=O)N32)cc1 (stereo not drawn)	i
COc1ccc(C(=O)Nc2cc(C)c(Cl)cc2OC)c(OC)c1	9%
CCSc1nnc(NC(=O)c2c(-c3ccccc3)noc2C)s1	i
COc1ccc(-c2noc(COc3ccccc3Cl)n2)cc1	0%
Cc1ccc(-n2nnnc2SCc2cccc([N+](=O)[O-])c2)c(C)c1	i
Cc1nnc(NC2CCCCC2)[nH]c1=O	i

# A portion of the library (hit frequency here may not be typical).
